# Screens as filed in PubChem BioAssay.
# T cruzi repl = inhibitors of intracellular T. cruzi growth, primary screen, luminescence, NIH3T3 host cells | AID 1885, 2009 | inhibition, % (concentration not given with the values) | T. cruzi beta-gal in NIH3T3, 90 h | actives 1.4% (n = 300,000);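 active means mean inhibition across valid replicates above about 55%, limit read from the data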;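 further: signal also drops with host cell toxicity which is not excluded here; 0% = plate median of DMSO wells and 100% = zero luminescence signal; higher percent means less beta-gal luminescence so fewer parasites; stock transfer was 50 nL into about 50 µL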
# rRNA inh HTS = reduced GFP signal of wild-type E. coli, primary screen, bacterial rRNA inhibitor project, GFP/RFP fluorescence, OD600, single point. actives 1.6% (n = 350,000). AID 720706, 2013. GFP signal change (wild-type ribosome), % (test concentration not listed). E. coli WT GFP vs humanized-ribosome RFP mutants, 24 h; active compounds read low; DMSO median 0, no signal -100;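 active means significant combined selectivity score with lowered wild-type GFP, culture density cut under 30%, mutant RFP and density less affected; inactive means any of these conditions unmet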; further: one replicate is shown; some compounds called inactive have numbers as strong as hits
# Ecoli growth = E. coli growth inhibition, primary screen, OD600; Escherichia coli growth, 23 h; active compounds read low; OD600 absorbance (test concentration not listed); actives 0.21% (n = 330,000);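 active means OD600 absorbance below the run mean of sample wells minus 3.6 SD, in any replicate, cut at about 0.56 in these data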;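 further: stock transfer was 300 nL into about 60 µL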
# FGF22 binding = binders of human FGF22 protein, primary screen, FGF22 synaptogenesis inhibitor project, biophysical, thermal shift, single point; recombinant FGF22 thermal shift, SYPRO orange fluorescence; percent of sucrose octasulfate shift, DMSO zero; calls only at 9.99 µM; actives 1.5% (n = 340,000); AID 651658, 2012;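 active means melting point raised past a set limit in the mean and every replicate; three in four hits are not shown here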
# Target sequence (Q9HCT0 whole entry, looked up): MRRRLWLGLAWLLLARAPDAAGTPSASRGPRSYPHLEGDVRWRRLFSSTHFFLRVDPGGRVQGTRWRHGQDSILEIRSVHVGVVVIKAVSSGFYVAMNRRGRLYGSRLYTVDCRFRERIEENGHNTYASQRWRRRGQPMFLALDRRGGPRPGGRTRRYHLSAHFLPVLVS
# Beta apoptosis = inhibitors of cytokine-induced beta cell apoptosis, primary screen, luminescence. AID 435005, 2010. protection from apoptosis, % (no concentration beside the values). INS-1E cytokine-induced death, ATP luminescence, 48 h; percent of positive-control rescue, neutral wells zero. actives 0.8% (n = 300,000);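 active means all replicates at 75% or more, or half of them and the mean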;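 further: 0% = cytokine-treated negative control wells and 100% = positive control rescue; higher means more ATP so stronger rescue from cytokine killing; wells of about 40 µL received 100 nL stock; the first replicate is given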
# A1 inh = caspase 3/7 activation in MEF A1-2A-BIM cells, primary screen, A1 inhibitor project, cell-based, luminescence, HTS | actives 0.066% (n = 330,000) | Caspase-Glo 3/7 luminescence, 3 h; percent of clofoctol response, vehicle zero | caspase activation, % (no concentration beside the values);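 active means over half of replicate activation scores above 10%, or exactly half above 10 with the replicate mean above 10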;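 further: wells of about 30 µL received 50 nL stock; many hits fall short of the cut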
# AF4-AF9 inh = inhibitors of AF4 peptide binding to AF9, primary screen, biochemical, AlphaScreen, biotin-AF4 peptide, FLAG-AF9, single point; inhibition, % at 10 µM; Protein AF-9 (Homo sapiens), P42568; actives 0.47% (n = 350,000);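 active means every replicate reaching a set inhibition limit, whatever the replicate mean, cut at about 25% in these data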;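 further: 0% = plate neutral control median and 100% = total signal loss; the record names both 10 and 1 µM as test concentration; the first replicate is given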
# Target sequence (P42568 whole entry, looked up): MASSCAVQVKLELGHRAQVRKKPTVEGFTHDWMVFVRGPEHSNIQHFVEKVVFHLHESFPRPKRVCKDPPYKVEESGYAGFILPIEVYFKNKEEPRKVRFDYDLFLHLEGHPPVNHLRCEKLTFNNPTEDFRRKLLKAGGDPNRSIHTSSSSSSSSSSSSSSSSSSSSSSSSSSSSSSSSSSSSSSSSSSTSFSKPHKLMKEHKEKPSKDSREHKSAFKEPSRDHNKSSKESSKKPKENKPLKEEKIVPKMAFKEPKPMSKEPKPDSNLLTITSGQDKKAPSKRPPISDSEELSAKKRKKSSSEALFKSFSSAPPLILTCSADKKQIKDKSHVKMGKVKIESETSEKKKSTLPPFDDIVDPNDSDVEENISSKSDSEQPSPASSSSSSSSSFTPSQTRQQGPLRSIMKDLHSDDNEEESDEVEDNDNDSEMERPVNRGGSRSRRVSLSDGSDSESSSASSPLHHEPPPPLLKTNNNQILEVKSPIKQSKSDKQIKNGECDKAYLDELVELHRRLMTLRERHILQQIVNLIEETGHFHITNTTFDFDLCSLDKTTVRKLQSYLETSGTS
# UCH37 DUB inh = inhibitors of human UCH37 deubiquitinase, primary screen, biochemical, Ub-AMC cleavage, fluorescence; Ubiquitin carboxyl-terminal hydrolase isozyme L5 (Homo sapiens), Q9Y5K5; purified proteasome/UCH37; inhibition, % (test concentration not listed); actives 0.33% (n = 330,000);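 active means mean of two replicates above 20%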;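 further: 0% = compound-free wells with enzyme and 100% = wells lacking proteasome; stock transfer was 100 nL into about 20 µL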
# Target sequence (Q9Y5K5 whole entry, looked up): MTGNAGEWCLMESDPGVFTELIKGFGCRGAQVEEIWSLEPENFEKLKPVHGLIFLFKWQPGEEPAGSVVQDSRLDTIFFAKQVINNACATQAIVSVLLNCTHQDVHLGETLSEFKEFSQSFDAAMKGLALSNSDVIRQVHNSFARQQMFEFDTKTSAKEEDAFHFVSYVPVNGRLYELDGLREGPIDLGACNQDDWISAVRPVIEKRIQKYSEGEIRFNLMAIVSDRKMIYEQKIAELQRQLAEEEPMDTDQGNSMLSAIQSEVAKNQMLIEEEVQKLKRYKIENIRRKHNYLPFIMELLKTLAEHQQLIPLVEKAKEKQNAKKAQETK
#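 Material: human UCH37 enzyme supplied as purified proteasome complex / Amount: 0.15 nM proteasome as dispensed / Buffer or medium: pH 7.4 Tris-HCl (50 mM) with ovalbumin, ATP-MgCl2, DTT / Times: preincubation 30 min, reaction 25 min, room temperature / Technique: AMC fluorescence from Ub-AMC cleavage, excitation 355 nm, emission 460 nm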
# rRNA inh HTS OD600 = also measured in rRNA inh HTS; calls as there; OD600 change, %; measured here: OD600 growth;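 optical density of the mix in the first replicate; 0 = DMSO median and -100 = no signal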
# rRNA inh HTS RFP = also measured in rRNA inh HTS; calls as there; RFP signal change, %; measured here: RFP humanized mutant strains;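 first replicate; 0 = DMSO median and -100 = no signal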
# Numbers without * were called inactive; i = inactive; nt = not tested or not shown. The list is partial, so the mix of outcomes need not match the whole.
mol	T cruzi repl	rRNA inh HTS	rRNA inh HTS OD600	rRNA inh HTS RFP	Ecoli growth	FGF22 binding	Beta apoptosis	A1 inh	AF4-AF9 inh	UCH37 DUB inh
O=C(CN(C1CCCCC1)S(=O)(=O)c1ccccc1)NCC1CCCO1 (centres undefined)	2	-10	-7	2.1	0.69	i	nt	nt	0.3	2.7
Cc1sc2nc(SCC(=O)NCc3ccco3)n(CCc3ccccc3)c(=O)c2c1C	41	nt	nt	nt	0.75	nt	24	0.5	nt	5.6
Cc1ccccc1NC(=O)c1c(-c2ccccc2)noc1C	-2	nt	nt	nt	0.71	nt	1	-0.2	nt	3.1
COCCc1nnc(NC(=O)C23CC4CC(CC(C4)C2)C3)s1	0	8	15	-0.1	0.62	i	nt	0.6	-8.8	3.5
O=C(O)CSc1nc(-c2ccccc2)nc2c1CCCC2	5	-4	-10	1.2	0.69	i	-2	0.4	-2.7	5.0
NC(=O)c1cc2cc(Br)ccc2o/c1=N/NC(=O)c1cccc(F)c1	2	6	11	-1.3	nt	i	-1	0.5	1.2	nt
CCCCC(=O)Nc1ccc(NC(=O)c2ccc(C)c([N+](=O)[O-])c2)cc1OC	-14	nt	nt	nt	0.68	nt	-2	1.1	nt	2.4
Cc1cccc(C(=O)OC2CCN(C)CC2)c1	53	11	3	-0.2	0.7	i	-2	0.7	0.3	4.5
Cc1c2cnn(CC(=O)NCc3ccccn3)c(=O)c2c(C)n1Cc1ccccc1	-5	3	4	-11	0.81	i	1	nt	4.4	3.0
Cc1cc(C)cc(OCC(=O)OCC(=O)NCc2cccs2)c1	-15	-6	-6	3.0	0.63	i	-1	0.3	-0.2	1.3
CCOC(=O)C1CCN(CC(O)COc2ccc(C(=O)CC)cc2)CC1 (centres undefined)	15	nt	nt	nt	0.65	nt	7	0.0	nt	4.9
COC(=O)CC1SCCNC1=O (centres undefined)	-7	5	7	-1.9	0.73	nt	4	-0.2	nt	-0.4
NS(=O)(=O)c1ccc(CCNC(=O)C2CCN(S(=O)(=O)c3cccc4cccnc34)CC2)cc1	-11	nt	nt	nt	0.69	nt	-1	1.0	nt	0.8
CC1=CC(=O)OC1Cc1ccncc1 (centres undefined)	-6	nt	nt	nt	0.74	nt	1	-0.1	nt	1.7
COC(=O)N1C(=O)[C@](c2ccccc2)(C2CCCC2)N1C(=O)OC	0	2	6	0.2	0.65	i	1	1.3	2.1	0.4
O=C(CCC1CCCN(C(=O)c2ccc(F)c(F)c2)C1)N1CCN(c2ccccn2)CC1 (centres undefined)	9	-1	-6	2.2	0.7	i	-8	0.2	0.3	-0.9
Cc1ccc(C(=O)/C=C/Nc2ccc(S(=O)(=O)Nc3cc(C)nc(C)n3)cc2)cc1	24	-3	1	1.6	0.69	i	nt	-1.2	-0.4	-294
COc1cc(C(=O)Nc2nccs2)ccc1OCc1c(C)noc1C	10	-4	1	2.3	0.66	nt	-2	0.6	-27	3.4
CC(=O)N1CCOc2ccc(S(=O)(=O)NCC3CCC(C(=O)Nc4ncccc4C)CC3)cc21 (centres undefined)	-18	0	2	-1.8	0.69	i	-3	0.8	0.6	5.8
CC(C)Oc1cccc(C(=O)C2CCCN(C(=O)c3noc4c3CCCC4)C2)c1 (centres undefined)	31	-25	-34	-11	0.69	nt	-3	0.4	-3.1	3.3
CC(NC(=O)NC(=O)c1cccc([N+](=O)[O-])c1)C1CC1 (centres undefined)	-17	-6	5	-1.2	0.7	i	-7	1.2	2.5	3.7
CN1CCN(c2ccccc2NC(=O)COc2ccccc2)CC1	-19	nt	nt	nt	0.65	nt	-1	0.4	nt	-1.6
CN(CCNC(=O)C1CCC(=O)N(Cc2cccc(F)c2)C1)CCc1ccccc1 (centres undefined)	41	7	19	0.9	0.7	i	4	0.1	2.7	0.1
Cc1cc(Nc2cccc(Cl)c2)c2ccccc2n1	29	15	16	-3.7	0.65	i	-31	0.9	-1.0	-4.8
CCCn1c(SCC(N)=O)nnc1C(C)C	0	nt	nt	nt	0.72	nt	-7	-0.6	nt	3.6

# One compound at a time (already shown). Screens in order: T cruzi repl, rRNA inh HTS, rRNA inh HTS OD600, rRNA inh HTS RFP, Ecoli growth, FGF22 binding, Beta apoptosis, A1 inh, AF4-AF9 inh, UCH37 DUB inh
# Shown for O=C(CN(C1CCCCC1)S(=O)(=O)c1ccccc1)NCC1CCCO1 (centres undefined) : 2, -10, -7, 2.1, 0.69, i, nt, nt, 0.3, 2.7
# Shown for CC(NC(=O)NC(=O)c1cccc([N+](=O)[O-])c1)C1CC1 (centres undefined) : -17, -6, 5, -1.2, 0.7, i, -7, 1.2, 2.5, 3.7
# Shown for CC(C)Oc1cccc(C(=O)C2CCCN(C(=O)c3noc4c3CCCC4)C2)c1 (centres undefined) : 31, -25, -34, -11, 0.69, nt, -3, 0.4, -3.1, 3.3
# Shown for Cc1cccc(C(=O)OC2CCN(C)CC2)c1 : 53, 11, 3, -0.2, 0.7, i, -2, 0.7, 0.3, 4.5
# Shown for Cc1cc(Nc2cccc(Cl)c2)c2ccccc2n1 : 29, 15, 16, -3.7, 0.65, i, -31, 0.9, -1.0, -4.8

# Following part.
mol	T cruzi repl	rRNA inh HTS	rRNA inh HTS OD600	rRNA inh HTS RFP	Ecoli growth	FGF22 binding	Beta apoptosis	A1 inh	AF4-AF9 inh	UCH37 DUB inh
CN(CC(=O)Nc1ccccc1Cl)C(=O)C1CCN(C(=O)c2ccc(Cl)cc2)CC1	5	-8	-2	-1.8	0.71	i	2	-0.3	-1.1	4.2
Oc1oc(-c2ccc(Br)cc2)nc1/C=N/c1ccccn1	6	3	8	-2.0	nt	i	-4	1.7	-1.4	nt
Cc1ccc(NC(=O)CCc2nnc3ccc(N4CCC5(CC4)OCCO5)nn23)cc1F	-5	0	-1	-1.3	0.65	i	2	-0.5	-1.3	-0.5
O=[N+]([O-])c1cccc(C(O)C23CN4CN(CN(C4)C2)C3)c1 (centres undefined)	-9	10	12	1.9	0.64	i	-8	0.7	-15	1.5
CCc1ccc(NC(=O)c2noc(C(C)C)c2[N+](=O)[O-])cc1	7	-1	2	-1.4	0.69	i	-3	-1.3	-2.9	-0.1
COC(=O)c1sccc1NC(=S)N1CCN(c2ccc(F)cc2)CC1	2	nt	nt	nt	0.7	nt	0	-0.3	nt	3.6
CC(C)(CNC(=O)CNC(=O)c1ccc(Cl)cc1Cl)N1CCOCC1	nt	7	13	-3.5	0.69	i	nt	nt	2.5	-0.9
Cc1ccc(C(=O)NCC(=O)NNC(=O)CN(C)S(=O)(=O)c2ccc(Cl)cc2)s1	-7	-2	14	0.7	0.62	i	-7	1.5	1.3	3.1
CCN(CC(=O)Nc1c(F)cccc1F)C(=O)COc1cccc2c1OC(C)(C)C2	-3	10	11	-1.3	0.65	i	1	-0.2	-23	3.7
CCOc1ccc(C2C3=C(CCCC3=O)OC(N)=C2[N+](=O)[O-])cc1 (centres undefined)	-6	8	8	-0.5	0.71	i	-9	0.2	-4.9	7.6
FC(F)(F)c1cccc(CON=C2CCN(c3ncc(C(F)(F)F)cc3Cl)CC2)c1	24	nt	nt	nt	0.7	nt	7	-0.1	nt	-2.1
Cc1onc(-c2c(F)cccc2Cl)c1C(=O)N(C)CC(=O)Nc1cccc(F)c1	-9	-4	-1	1.5	0.72	i	-2	0.7	-0.5	4.2
O=C1NC(=O)/C(=C/c2cccc(O)c2)N1	-6	7	-1	0.1	nt	i	-9	0.5	-0.1	nt
CSCC(C)N1CCC(CO)(CCc2ccccc2)CC1 (centres undefined)	14	1	-2	-1.9	0.64	i	-3	-1.8	-0.3	0.2
O=C(CN(c1ccc(F)cc1)S(=O)(=O)c1ccccc1)NC1CCCCCC1	10	2	6	-1.9	0.66	i	7	0.2	-2.8	-2.7
CNC(=O)c1cn(-c2ccc(Cl)cc2)c(=O)c2ccccc12	10	7	12	2.8	0.69	i	0	0.1	1.2	-1.2
COc1ccc(OCCSc2nnc(C(C)NC(=O)c3ccccc3F)n2C)cc1 (centres undefined)	3	-3	2	-0.9	0.74	i	-2	0.2	-2.8	3.0
O=CN1CCN(C(=O)c2cccc([N+](=O)[O-])c2)CC1	-1	18	22	-2.4	0.72	i	0	0.4	5.3	1.2
COCCNC(=O)COC(=O)c1nsc(Cl)c1Cl	-6	nt	nt	nt	0.72	nt	-6	0.8	nt	4.5
CCOC(=O)c1ccc(S(=O)(=O)NNC(=O)c2cccc(N(C)C)c2)cc1	-12	-1	8	3.0	0.71	i	-4	-0.6	-1.1	1.2
Cc1cccc(NC(=O)CSCC(=O)Nc2ccc(S(=O)(=O)N3CCOCC3)cc2)c1	1	-7	-4	1.2	0.64	i	3	0.2	-1.8	4.0
Cn1c(NCc2cccc(Br)c2)nc2ccccc21	-26	nt	nt	nt	0.65	nt	-2	0.9	nt	1.4
COCCCn1c(Cc2csc(Nc3cccc(Cl)c3)n2)nnc1SCC(=O)OC	-17	8	3	5.5	0.67	i	1	0.5	-27	4.6
NC(=O)c1ccccc1OCCOc1ccc(Br)cc1	-1	-26*	-12*	-8.9*	0.69	i	-8	-0.3	-2.1	5.3
CCCCC(=O)Nc1ccc(NC(=O)CC)cc1OC	4	nt	nt	nt	0.69	nt	0	-0.7	nt	5.1

# Only T cruzi repl (two entries from above):
Compound | T cruzi repl
CSCC(C)N1CCC(CO)(CCc2ccccc2)CC1 (centres undefined) | 14
Cc1cccc(C(=O)OC2CCN(C)CC2)c1 | 53

# Next section:
mol	T cruzi repl	rRNA inh HTS	rRNA inh HTS OD600	rRNA inh HTS RFP	Ecoli growth	FGF22 binding	Beta apoptosis	A1 inh	AF4-AF9 inh	UCH37 DUB inh
O=C(Nc1nnc(S(=O)(=O)N2CCCCCC2)s1)c1ccccc1Br	1	-53	-76	-15	0.69	i	1	-0.2	-7.3	5.3
O=C(c1cc2ccccc2oc1=O)N1CCN(Cc2ccc3c(c2)OCO3)CC1	-6	nt	nt	nt	0.7	nt	-4	1.6	nt	6.9
Fc1cccc(F)c1-n1c(CN2CCOCC2)csc1=S	-13	2	-12	-1.2	0.72	i	-5	0.3	-1.7	3.9
CC1CCN(S(=O)(=O)c2ccc3c(c2)oc(=O)n3CC(=O)N2c3ccccc3CC2C)CC1 (centres undefined)	41	0	1	-4.6	0.73	i	-1	-0.3	-5.7	8.6
CC(=O)Nc1ccc(S(=O)(=O)NCCC(=O)NCc2ccncc2)cc1	-8	11	14	0.4	0.67	i	-3	0.1	-0.7	2.7
CN(CC(=O)Nc1cccc(F)c1)C(=O)c1ccc(NC2CC2)c([N+](=O)[O-])c1	-6	6	3	1.3	0.73	i	nt	-0.1	-6.0	1.9
